# Bioassay records: PubChem, Broad Institute
# Yeast UUG start – modulators of yeast start codon fidelity, primary screen, whole organism, S. cerevisiae, single point, plate reader; AID 602363, 2012; 350,000 compounds, 0.13% hits; activity score, % at 18.7 µM; S. cerevisiae UUG-firefly luciferase reporter, luminescence/redox ratio;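 active = replicate mean at a twofold rise or more, about +100% in these data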;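 note: firefly luciferase made from a UUG start codon reports start codon fidelity; reporter light over untreated wells divided by growth signal over untreated wells; some hits fall short of that in this replicate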
# Env fusion inh – inhibitors of HIV-1 Env-driven cell-cell fusion, primary screen, HeLa-JRFL effector, CEM21 target cells, luciferase; 360,000 compounds, 1.1% hits; inhibition, % at 12.3 µM;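 active = mean replicate inhibition score of at least 50 and every replicate individually at or above 50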;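 note: 0% = plate neutral controls and 100% = maraviroc near 300 nM; one replicate is shown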
# Numbers without * were called inactive; & = joins results of further samples; [ ] = remark or other dose. These rows are one share of the data; the hit share may differ from the screen's.
SMILES,Yeast UUG start,Env fusion inh
C[C@H](CO)N1C[C@H](C)[C@@H](CN(C)Cc2ccccc2)Oc2ccc(NC(=O)Cn3cnnn3)cc2CC1=O,12,0[16.7 µM]
COc1ccc(S(=O)(=O)N[C@H]2CC[C@H](CC(=O)O)O[C@H]2CO)cc1,-9,-4[16.7 µM]
O=C(Nc1ccc2c(c1)[C@@H]1C[C@@H](CC(=O)N3CCCCC3)O[C@H](CO)[C@@H]1O2)c1ccc2c(c1)OCO2,-7,18[16.7 µM]
C[C@@H]1CN([C@@H](C)CO)C(=O)c2cc(NC(=O)C3CCCCC3)ccc2O[C@@H](C)CCCCO[C@@H]1CN(C)S(=O)(=O)c1cccs1,-12,-36[16.7 µM]
COCc1cn(CC[C@@H]2CC[C@@H](NC(=O)Nc3ccccc3)[C@H](CO)O2)nn1,-13,-14[16.7 µM]
CCCN(C)C[C@H]1Oc2cc(C#Cc3cccnc3)ccc2S(=O)(=O)N([C@H](C)CO)C[C@H]1C,-6,0[16.7 µM]
C[C@H](CO)N1C[C@H](C)[C@H](CN(C)S(=O)(=O)c2ccc(Cl)cc2)OCCCC[C@H](C)Oc2ccc(NS(=O)(=O)c3ccc(F)cc3)cc2C1=O,-7,-85[16.7 µM]
COCC(=O)Nc1ccc2c(c1)C(=O)N(C)[C@@H]1CC[C@@H](CC(=O)Nc3cn(C)nc3C)O[C@@H]1CO2,-12,-9[16.7 µM]
COc1ccc(S(=O)(=O)N(C)C[C@H]2Oc3ccc(NC(=O)c4ccncc4)cc3CC(=O)N([C@@H](C)CO)C[C@H]2C)cc1,-2,0[16.7 µM]
COc1ccc(S(=O)(=O)Nc2ccc3c(c2)C(=O)N([C@@H](C)CO)C[C@@H](C)[C@@H](CN(C)S(=O)(=O)c2ccc(C)cc2)OCCCC[C@H](C)O3)cc1,-5,-24[16.7 µM]
C[C@H]1CN([C@@H](C)CO)C(=O)c2cc(Br)cnc2O[C@@H]1CN(C)Cc1cccc(C(=O)O)c1,-10,17[16.7 µM]
COc1ccccc1-c1cnc2c(c1)C(=O)N([C@H](C)CO)C[C@@H](C)[C@@H](CN(C)Cc1cccnc1)O2,49,7[16.7 µM]
COc1ccc(NC(=O)Nc2ccc3c(c2)[C@@H]2C[C@H](CC(=O)NCc4ccc(-c5ccccc5)cc4)O[C@@H](CO)[C@@H]2O3)cc1,-3,32[16.7 µM]
Cc1ccc(OC(=O)N(C)C[C@H]2OCc3cn(nn3)CCCC(=O)N([C@@H](C)CO)C[C@@H]2C)cc1,10,11
Cc1ccc(S(=O)(=O)Nc2ccc3c(c2)C(=O)N([C@H](C)CO)C[C@H](C)[C@H](CN(C)C(=O)NC(C)C)O3)cc1,-1,5[16.7 µM]
COc1ccc(NC(=O)Nc2ccc3c(c2)C(=O)N([C@@H](C)CO)C[C@@H](C)[C@@H](CN(C)Cc2ccc(C(F)(F)F)cc2)OCCCC[C@H](C)O3)cc1,10,9[16.7 µM]
COc1cccc(S(=O)(=O)N(C)C[C@@H]2Oc3ncc(C#CCC(C)C)cc3C(=O)N([C@@H](C)CO)C[C@H]2C)c1,4,-3[16.7 µM]
CNC[C@H]1OCCCC[C@H](C)Oc2ccc(NS(=O)(=O)c3c(C)noc3C)cc2C(=O)N([C@@H](C)CO)C[C@@H]1C,7,-3[16.7 µM]
C[C@H](CO)N1C[C@H](C)[C@@H](CN(C)Cc2ccccc2)Oc2ccc(NC(=O)Nc3ccc(F)cc3)cc2C1=O,-1,-3[16.7 µM]
Cc1ccc(S(=O)(=O)N(C)C[C@H]2Oc3ccc(NC(=O)Nc4cccc5ccccc45)cc3CC(=O)N([C@@H](C)CO)C[C@H]2C)cc1,-3,2[16.7 µM]
O=C(CC1CC1)Nc1ccc2c(c1)[C@H]1C[C@H](CC(=O)NC3CCCC3)O[C@H](CO)[C@H]1O2,-4,26[16.7 µM]
CCCNC(=O)N(C)C[C@@H]1Oc2cc(C#Cc3cccc(F)c3)ccc2S(=O)(=O)N([C@H](C)CO)C[C@H]1C,-6,16[16.7 µM]
CCCNC(=O)N(C)C[C@H]1Oc2ncc(-c3ccc(OC)cc3)cc2C(=O)N([C@H](C)CO)C[C@@H]1C,-9,10[16.7 µM]
CC(C)NC(=O)Nc1ccc2c(c1)C(=O)N([C@H](C)CO)C[C@H](C)[C@H](CN(C)C(=O)Nc1ccc3c(c1)OCO3)OCCCC[C@@H](C)O2,-3,23[16.7 µM]
O=C(C[C@@H]1CC[C@@H](NC(=O)c2cccnc2)[C@H](CO)O1)NCc1ccncn1,-3,0[16.7 µM]
CN(C)CC(=O)N[C@H]1CC[C@@H](CCNC(=O)C2CCCC2)O[C@H]1CO,3,-4[16.7 µM]
COCC(=O)N(C)C[C@@H]1Oc2cc(C#C[C@@H](C)O)ccc2S(=O)(=O)N([C@H](C)CO)C[C@H]1C,0,-4[16.7 µM]
CN1C(=O)c2cc(NC(=O)c3ccc(F)cc3)ccc2OC[C@H]2O[C@@H](CC(=O)O)CC[C@H]21,8,-4[16.7 µM]
C[C@H](NC(=O)C[C@@H]1C=C[C@H](NC(=O)C2CC2)[C@H](CO)O1)c1ccccc1,5,10[16.7 µM]
CCCC(=O)Nc1ccc2c(c1)C(=O)N(C)[C@H]1CC[C@H](CC(=O)NCCOC)O[C@H]1CO2,-2,-5[16.7 µM]
CN(C)CC(=O)N[C@H]1CC[C@H](CCNC(=O)Nc2ccc(C(F)(F)F)cc2)O[C@H]1CO,4,5[16.7 µM]
CO[C@@H]1CN(C)C(=O)c2ccc(NC(=O)NC(C)C)cc2OC[C@@H](C)N(CCC(F)(F)F)C[C@@H]1C,-3,-8[16.7 µM]
C[C@@H]1CN([C@H](C)CO)S(=O)(=O)c2ccc(C#CC3(O)CCCC3)cc2O[C@H]1CN(C)C(=O)Cc1ccncc1,2,3[16.7 µM]
COc1ccc(-c2cnc3c(c2)C(=O)N([C@@H](C)CO)C[C@@H](C)[C@H](CN(C)Cc2ccc(C(=O)O)cc2)O3)cc1,1,3[16.7 µM]
COc1ccc(S(=O)(=O)Nc2ccc3c(c2)C(=O)N([C@H](C)CO)C[C@H](C)[C@H](CN(C)C(=O)Nc2ccc(F)cc2)O3)cc1,10,6[16.7 µM]
C[C@H](O)C#Cc1ccc2c(c1)O[C@@H](CN(C)C(=O)C1CCC1)[C@H](C)CN([C@H](C)CO)S2(=O)=O,1,-11[16.7 µM]
COc1ccc(NC(=O)Nc2ccc3c(c2)C(=O)N([C@H](C)CO)C[C@@H](C)[C@H](CN(C)Cc2ccncc2)OCCCC[C@H](C)O3)cc1,-3,13[16.7 µM]
CC(C)CC#Cc1ccc2c(c1)O[C@@H](CN(C)C(=O)c1cccnc1)[C@@H](C)CN([C@@H](C)CO)S2(=O)=O,121*,-2[16.7 µM]
C[C@@H]1CN([C@H](C)CO)C(=O)c2cccc(NC(=O)Nc3ccc4c(c3)OCO4)c2O[C@@H]1CN(C)C(=O)Nc1ccc(F)cc1,-11,-8[16.7 µM]
C[C@@H]1CN([C@@H](C)CO)C(=O)c2cc(-c3ccncc3)cnc2O[C@H]1CN(C)Cc1ccc(F)cc1,2,-4[16.7 µM]

# 6 of these compounds, reformatted:
mol	Yeast UUG start	Env fusion inh
CN(C)CC(=O)N[C@H]1CC[C@@H](CCNC(=O)C2CCCC2)O[C@H]1CO	3	-4[16.7 µM]
COCC(=O)N(C)C[C@@H]1Oc2cc(C#C[C@@H](C)O)ccc2S(=O)(=O)N([C@H](C)CO)C[C@H]1C	0	-4[16.7 µM]
CN1C(=O)c2cc(NC(=O)c3ccc(F)cc3)ccc2OC[C@H]2O[C@@H](CC(=O)O)CC[C@H]21	8	-4[16.7 µM]
C[C@H](NC(=O)C[C@@H]1C=C[C@H](NC(=O)C2CC2)[C@H](CO)O1)c1ccccc1	5	10[16.7 µM]
CCCC(=O)Nc1ccc2c(c1)C(=O)N(C)[C@H]1CC[C@H](CC(=O)NCCOC)O[C@H]1CO2	-2	-5[16.7 µM]
CN(C)CC(=O)N[C@H]1CC[C@H](CCNC(=O)Nc2ccc(C(F)(F)F)cc2)O[C@H]1CO	4	5[16.7 µM]

# (more compounds)
SMILES,Yeast UUG start,Env fusion inh
C[C@@H]1CN([C@H](C)CO)C(=O)c2cccc(NC(=O)c3ccc(-c4nccs4)cc3)c2O[C@H]1CN(C)CC1CC1,1,44[16.7 µM]
COc1cccc(NC(=O)N[C@@H]2C=C[C@@H](CC(=O)NCc3ccccn3)O[C@H]2CO)c1,-12,-16[16.7 µM]
Cc1ccc(S(=O)(=O)Nc2ccc3c(c2)C(=O)N([C@H](C)CO)C[C@H](C)[C@@H](CN(C)C(=O)Cc2ccccc2)OCCCC[C@H](C)O3)cc1,5,-97[16.7 µM]
Cc1noc(C)c1S(=O)(=O)Nc1ccc2c(c1)C(=O)N([C@@H](C)CO)C[C@H](C)[C@@H](CN(C)S(=O)(=O)c1ccc(Cl)cc1)OCCCC[C@@H](C)O2,3,27[16.7 µM]
Cc1ccc(-c2ccc3c(c2)O[C@H](CN(C)Cc2cccnc2)[C@@H](C)CN([C@@H](C)CO)S3(=O)=O)cc1,-1,21[16.7 µM]
C[C@@H]1CN([C@H](C)CO)C(=O)c2cc(NC(=O)Nc3cccc4ccccc34)ccc2O[C@@H]1CN(C)C(=O)Nc1cccc2ccccc12,11,21[16.7 µM]
CC(C)NC(=O)N[C@@H]1CC[C@@H](CCNC(=O)C2CCOCC2)O[C@@H]1CO,-17,-21[16.7 µM]
C[C@H]1CN([C@@H](C)CO)C(=O)CCCn2nncc2CO[C@H]1CN(C)C(=O)Nc1ccnc(N2CCOCC2)c1,-20&0,10
C[C@@H]1CN([C@H](C)CO)C(=O)c2cc(NC(=O)CCCN(C)C)ccc2O[C@@H](C)CCCCO[C@H]1CN(C)C(=O)NC1CCCCC1,11,4[16.7 µM]
C[C@@H]1CN([C@@H](C)CO)S(=O)(=O)c2ccc(C#Cc3ccccc3F)cc2O[C@@H]1CN(C)C,3,-5[16.7 µM]
COc1ccc(S(=O)(=O)N(C)C[C@@H]2OCCCC[C@@H](C)Oc3ccc(NS(=O)(=O)c4c(C)noc4C)cc3C(=O)N([C@@H](C)CO)C[C@@H]2C)cc1,6,-18[16.7 µM]
Cc1noc(C)c1NC(=O)N(C)C[C@H]1Oc2ncc(C3=CCCC3)cc2C(=O)N([C@@H](C)CO)C[C@H]1C,-7,44[16.7 µM]
C[C@@H]1CCCCO[C@@H](CN(C)S(=O)(=O)c2ccc(F)cc2)[C@@H](C)CN([C@@H](C)CO)C(=O)c2cc(NS(C)(=O)=O)ccc2O1,19,-11[16.7 µM]
C[C@H](CO)N1C[C@H](C)[C@H](CN(C)S(=O)(=O)c2ccc(F)cc2)OCc2cn(nn2)CCCC1=O,-2,-1[16.7 µM]
COc1ccccc1CN1C(=O)c2ccccc2[C@@H](C(=O)NCc2ccccc2)[C@@H]1c1ccc(CO)cc1,-7,-15[16.7 µM]
C[C@H](CO)N1C[C@H](C)[C@@H](CN(C)S(=O)(=O)c2ccccc2)Oc2c(NC(=O)Nc3ccc(F)cc3)cccc2C1=O,16,5[16.7 µM]
O=C(C[C@@H]1CC[C@H](NS(=O)(=O)c2ccc(F)cc2)[C@@H](CO)O1)NC1CCCCC1,-13,3[16.7 µM]
COc1ccc(S(=O)(=O)N(C)C[C@H]2Oc3ncc(-c4ccncc4)cc3C(=O)N([C@H](C)CO)C[C@H]2C)cc1,-9,-17[16.7 µM]
O=C(C[C@H]1C=C[C@@H](NS(=O)(=O)c2ccccc2)[C@@H](CO)O1)NCc1ccccc1F,-3,-1[16.7 µM]
C[C@H](NC(=O)C[C@@H]1CC[C@@H]2[C@H](COC[C@H](O)CN2C)O1)c1ccccc1,-21,-9[16.7 µM]
O=C(C[C@@H]1CC[C@@H](NC(=O)c2ccncc2)[C@H](CO)O1)NCC1CC1,0,1[16.7 µM]
Cc1noc(C)c1NC(=O)NCC[C@H]1CC[C@@H](NC(=O)Cc2cccnc2)[C@@H](CO)O1,-5,-10[16.7 µM]
C[C@H](CO)N1C[C@H](C)[C@H](CN(C)S(=O)(=O)c2ccc(F)cc2)OCCCC[C@H](C)Oc2ccc(NC(=O)NC3CCCCC3)cc2C1=O,-11,-38[16.7 µM]
O=C(N[C@@H]1CC[C@@H](CCn2cc(C3(O)CCCC3)nn2)O[C@@H]1CO)C1CCCC1,5,-1[16.7 µM]
CC(C)NC(=O)Nc1ccc2c(c1)C(=O)N([C@@H](C)CO)C[C@H](C)[C@H](CN(C)S(=O)(=O)c1cccs1)OCCCC[C@H](C)O2,-1,13[16.7 µM]
COc1ccc(S(=O)(=O)N(C)C[C@@H]2OCCCC[C@H](C)Oc3ccc(NC(=O)CCCN(C)C)cc3C(=O)N([C@@H](C)CO)C[C@H]2C)cc1,18,4[16.7 µM]
C[C@H](CO)N1C[C@H](C)[C@H](CN(C)C(=O)Nc2ccc(F)cc2)Oc2ncc(-c3cc4ccccc4o3)cc2C1=O,-11,-12[16.7 µM]

# In the list so far, 2 have a Cl atom:
SMILES,Yeast UUG start,Env fusion inh
C[C@H](CO)N1C[C@H](C)[C@H](CN(C)S(=O)(=O)c2ccc(Cl)cc2)OCCCC[C@H](C)Oc2ccc(NS(=O)(=O)c3ccc(F)cc3)cc2C1=O,-7,-85[16.7 µM]
Cc1noc(C)c1S(=O)(=O)Nc1ccc2c(c1)C(=O)N([C@@H](C)CO)C[C@H](C)[C@@H](CN(C)S(=O)(=O)c1ccc(Cl)cc1)OCCCC[C@@H](C)O2,3,27[16.7 µM]
